Assay outcomes from PubChem.
A1 inh: caspase 3/7 activation in MEF A1-2A-BIM cells, primary screen, A1 inhibitor project, cell-based, luminescence, HTS. 330,000 tested, 0.066% active. Caspase-Glo 3/7 luminescence, 3 h; percent of clofoctol response, vehicle zero. caspase activation, % (no concentration beside the values). AID 2462, 2010;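 active means over half of replicate activation scores above 10%, or exactly half above 10 with the replicate mean above 10; inconclusive means replicate mean below 10 yet half the replicates above 10; inactive means over half of replicates below 10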;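 further: wells of about 30 µL received 50 nL stock; many hits fall short of the cut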
Calb FLC: C. albicans growth inhibition with fluconazole, primary screen, CaCi-2 strain, Alamar Blue fluorescence | growth inhibition, % (test concentration not listed) | C. albicans CaCi-2 (fluconazole-resistant clinical isolate) + fluconazole, 48 h | 300,000 tested, 0.57% active | AID 1979, 2009;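 active means most replicates above 75%; inconclusive means exactly half above 75%; inactive means most below 75%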;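 further: all wells also contain fluconazole at 8 µg/ml as a sub-toxic cotreatment; 0% = median of DMSO wells and 100% = median of geldanamycin control wells; wells of about 8 µL received 7.5 nL stock; the first replicate is given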
LANA-H2A inh: blockers of LANA interaction with H2A/H2B – biochemical, FP readout, HTS, primary screen | cell-free LANA-H2A/H2B peptide, fluorescence polarization | inhibition, % (no concentration beside the values) | 320,000 tested, 0.6% active | AID 2629, 2010; in the data active means inhibition mostly above about 10%, no sharp cut-off; inactive means mostly below about 6.7%;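 further: stock transfer was 7.5 nL into about 10 µL; 0% = median of vehicle wells and 100% = median of positive control wells; one replicate is shown; the record names a cut of 25% in any replicate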
Target sequence (Q9QR71 whole entry, looked up): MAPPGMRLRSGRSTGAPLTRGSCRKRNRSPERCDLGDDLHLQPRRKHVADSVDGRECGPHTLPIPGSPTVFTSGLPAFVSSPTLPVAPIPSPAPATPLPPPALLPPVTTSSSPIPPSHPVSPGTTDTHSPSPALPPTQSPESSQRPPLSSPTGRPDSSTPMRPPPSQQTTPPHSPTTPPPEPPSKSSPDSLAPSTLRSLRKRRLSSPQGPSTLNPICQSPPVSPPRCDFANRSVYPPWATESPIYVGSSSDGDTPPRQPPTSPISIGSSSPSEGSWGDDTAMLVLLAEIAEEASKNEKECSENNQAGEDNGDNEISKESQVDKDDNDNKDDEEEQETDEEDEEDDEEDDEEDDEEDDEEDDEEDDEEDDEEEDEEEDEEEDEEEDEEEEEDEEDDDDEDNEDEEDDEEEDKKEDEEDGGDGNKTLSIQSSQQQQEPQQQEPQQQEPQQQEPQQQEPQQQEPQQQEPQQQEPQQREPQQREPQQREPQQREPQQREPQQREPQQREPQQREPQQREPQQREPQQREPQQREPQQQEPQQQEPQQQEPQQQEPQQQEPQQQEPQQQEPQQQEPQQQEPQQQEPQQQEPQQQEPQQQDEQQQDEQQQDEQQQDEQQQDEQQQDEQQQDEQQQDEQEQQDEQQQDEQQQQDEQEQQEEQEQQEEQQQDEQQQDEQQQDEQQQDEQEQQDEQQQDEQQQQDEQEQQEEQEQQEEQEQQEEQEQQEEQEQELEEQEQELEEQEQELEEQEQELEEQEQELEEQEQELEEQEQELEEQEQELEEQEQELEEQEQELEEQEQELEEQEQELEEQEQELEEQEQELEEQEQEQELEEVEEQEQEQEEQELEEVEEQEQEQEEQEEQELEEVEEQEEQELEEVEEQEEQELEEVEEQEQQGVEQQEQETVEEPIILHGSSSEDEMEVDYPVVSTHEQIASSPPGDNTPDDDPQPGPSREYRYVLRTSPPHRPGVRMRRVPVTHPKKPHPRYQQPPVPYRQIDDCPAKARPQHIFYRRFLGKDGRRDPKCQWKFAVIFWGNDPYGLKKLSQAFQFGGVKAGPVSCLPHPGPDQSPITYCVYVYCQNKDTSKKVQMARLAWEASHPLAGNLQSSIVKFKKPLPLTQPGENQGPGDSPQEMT
AF4-AF9 inh: inhibitors of AF4 peptide binding to AF9, primary screen, biochemical, AlphaScreen, biotin-AF4 peptide, FLAG-AF9, single point; 350,000 tested, 0.47% active; Protein AF-9 (Homo sapiens), P42568; inhibition, % at 10 µM;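 active means every replicate reaching a set inhibition limit, whatever the replicate mean, cut at about 25% in these data; inconclusive means mean inhibition reaches that limit but some replicates miss it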;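 further: 0% = plate neutral control median and 100% = total signal loss; the record names both 10 and 1 µM as test concentration; the first replicate is given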
Beta cell apopt: inhibitors of cytokine-induced beta cell apoptosis, primary screen, luminescence | 300,000 tested, 0.8% active | INS-1E cytokine-induced death, ATP luminescence, 48 h; percent of positive-control rescue, neutral wells zero | protection from apoptosis, % (test concentration not listed);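 active means all replicates at 75% or more, or half of them and the mean; inconclusive means half reach 75% but not the mean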;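 further: 0% = cytokine-treated negative control wells and 100% = positive control rescue; higher means more ATP so stronger rescue from cytokine killing; wells of about 40 µL received 100 nL stock; the first replicate is given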
RanGTP-Impb inh: inhibitors of RanGTP-importin-beta interaction, primary screen, biochemical, FRET, CFP-Ran, YFP-importin-beta, homogeneous. cell-free CFP-Ran/YFP-importin-beta FRET ratio. inhibition, % (test concentration not listed). 300,000 tested, 1.1% active;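 active means most replicates above 15%; inconclusive means exactly half above 15%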;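 further: 0% = DMSO wells and 100% = Ran loaded with GDP instead of GTP; wells of about 40 µL received 100 nL stock; the first replicate is given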
Vif A3G: inhibitors of Vif binding to APOBEC3G peptide, primary screen, biochemical, TR-FRET, GST-Vif 1-94, biotin-A3G peptide, dose response retest (AID 1117319); Virion infectivity factor (Human immunodeficiency virus type 1 group M subtype B (isolate …; TR-FRET GST-Vif / biotin-A3G peptide binding; higher % means a stronger effect; test concentration not given here; strong numbers were not always called active; one-dose inhibition, %; IC50 in µM for titrated hits; 260,000 tested, 0.57% active;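 active means above the screen mean plus three standard deviations and confirmed in dose response; inconclusive means results disagree or hit not tested in dose response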;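 further: Vif residues 1-94 fused to GST binding biotinylated APOBEC3G peptide 110-148; 0% = full assay without inhibitor and 100% = GST in place of GST-Vif; retest series ran down from 100 µM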
T cruzi inh: inhibitors of intracellular T. cruzi growth, primary screen, luminescence, NIH3T3 host cells; T. cruzi beta-gal in NIH3T3, 90 h; inhibition, % (test concentration not listed); 300,000 tested, 1.4% active; AID 1885, 2009;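 active means mean inhibition across valid replicates above about 55%, limit read from the data; inconclusive means mean below that limit but half or more replicates reach it; inactive means mean below it, under half of replicates reach it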;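 further: signal also drops with host cell toxicity which is not excluded here; 0% = plate median of DMSO wells and 100% = zero luminescence signal; higher percent means less beta-gal luminescence so fewer parasites; stock transfer was 50 nL into about 50 µL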
* hit, by the source's call; ? = inconclusive; nt = no result given; & = joins results of further samples.

SMILES	A1 inh	Calb FLC	LANA-H2A inh	AF4-AF9 inh	Beta cell apopt	RanGTP-Impb inh	Vif A3G	T cruzi inh
O=C(CN1C(=O)c2ccccc2S1(=O)=O)Nc1cccc(S(=O)(=O)N2CCOCC2)c1	0.4	nt	2.8	-12	-8	nt	-5%	nt
CC(C)CCc1noc(CN2CCC(C(=O)N3CCOCC3)CC2)n1	1.0	-9	3.8	-16	-4	1.7	7%	-1
O=C(N/C(=C\c1ccccc1)C(=O)N1CCCCCC1)c1ccccc1	-0.2	34	5.4	1.5	-4	-2.4	1%	6
COc1ccc(/C=C2/N=C3CCCCCN3C2=O)cc1OC	-0.6	3	-5.1	nt	-5	0.6	-2%	-7
COc1ccccc1Cc1nnc(NC(=O)C2CCN(C(=O)c3ccco3)CC2)s1	1.8	-9	-1.8	-8.8	-1	0.9	nt	3
CCNC(=S)N/N=C/c1cc(C)ccc1C	0.4	21	-1.8	4.1	-5	1.0	nt	0
COc1ccc(NC(=O)C(C)N2C(=O)C3CC=C(Cl)CC3C2=O)cc1 (stereo not given)	-2.2	-5	1.3	0.4	-3	-4.4	nt	-3
CCN1C(=O)[C@H]2[C@@H](c3ccc(-c4cccc(Cl)c4)c(OC)c3)N[C@@](CC(C)C)(C(=O)OC)[C@H]2C1=O	0.6	8	0.2	0.6	21	5.8	nt	37
Cc1ccc(S(=O)(=O)c2c(N)n(Cc3ccco3)c3nc4ccccc4nc23)cc1C	-0.9	8	19	nt	-17	7.1	5%	8
Cc1ccc(S(=O)(=O)c2nc(C)oc2NCc2ccccc2)cc1	1.3	22	-3.1	nt	-2	3.5	21%	-2
Cc1cc(=O)oc2c3c(cc(OCC(=O)NCc4cccnc4)c12)OC(C)(C)CC3	0.5	0	3.2	-1.4	3	-0.8	nt	17
COc1ccc(NC(=O)CN(C)C2CCCCC2)c([N+](=O)[O-])c1	0.1	0	-4.0	2.0	-14	-2.2	nt	12
CN(C)S(=O)(=O)c1ccc(N2CCCC2)c(C(=O)Nc2nc3ccc(F)cc3s2)c1	0.3	6	1.5	-19	-14	1.8	-27%	6
CCOC(=O)C1CCN(C(=O)CSc2nnc(-c3ccco3)n2-c2ccccc2)CC1	-1.0	0	0.0	nt	-6	5.5	25%	8
O=C(COc1ccccc1Br)NCc1ccco1	0.0	-3	2.5	nt	-4	4.8	6%	-3
CN(C)CCCNc1nc(-c2ccc(Cl)cc2)nc2ccccc12	-0.2	7	-1.5	5.4	3	1.4	nt	33
CCCCNC(=O)N(CC)c1c(N)n(Cc2ccccc2)c(=O)[nH]c1=O	-0.6	14	nt	3.0	-3	-2.8	-3%	-20
O=C(Nc1cnccn1)c1csc2ccccc12	-5.0	47	1.3	nt	-6	-2.0	81%	nt
CN(Cc1cnn(C)c1)Cc1nc(COc2ccccc2)no1	1.1	2	-2.5	-0.8	-1	?	2%	-11
O=C(OCC(=O)c1ccc[nH]1)c1ccc(S(=O)(=O)N2CCCCC2)cc1	nt	2	nt	nt	nt	-3.3	9%	-1
Cc1nnc(SCC(=O)c2cc(C)n(C3CC3)c2C)s1	0.3	1	0.0	nt	-13	0.9	13%	11
CCCCn1c(N)c(N(CC(C)C)C(=O)C2CCN(S(=O)(=O)c3ccccc3)CC2)c(=O)[nH]c1=O	0.4	nt	5.9	-1.3	-4	-2.0	3%	-4
COc1cc(OC)cc(C(=O)NCc2ccc3[nH]c(C)cc3c2)c1	1.2	23	-4.2	1.1	nt	-2.0	8%	0
CC(/C=C\c1cccnc1)=C/C(=O)O	0.2&0.8	5&-1	5.7&-2.6	nt	-8&-2	3.2&2.9	31%&3%	-9&11
CC[C@@H](C)[C@H](NC(=O)CNC(=O)Cc1c(C)c2c(cc(C)c3c(C)coc32)oc1=O)C(=O)O	0.0	-2	1.8	-0.4	-7	0.0	8%	-9
Cc1nnsc1C(=O)N(Cc1ccccc1)C(C)C	-0.6	-3	3.4	-0.4	-7	-1.5	nt	1
C=CCn1c(SCC(=O)c2cccs2)nnc1-c1cccc(OC)c1	0.7	-4	1.5	nt	nt	1.8	?	-6
Cc1ccnc(NC(=O)CS(=O)(=O)Cc2ccccc2)c1	1.5	-24	-0.2	nt	-7	-0.9	2%	0
Cc1nc([N+](=O)[O-])cn1CC(=O)c1ccc(F)cc1	?	-5	0.5	nt	-6	-1.7	-9%	-17
O=C(NC1CCS(=O)(=O)C1)c1ccc(N2CCCCC2)c([N+](=O)[O-])c1 (stereo not given)	0.6	0	3.5	0.6	-3	-0.1	-1%	-11
CCOC(=O)c1cc(-c2ccccc2)n(CC(=O)NC(C)(C)C)c1C	-0.5	4	1.7	-3.2	0	-3.7	-3%	1
CCCCN(CC)C(=O)c1ccc(-c2ccccc2)cc1	-0.4	1	-5.7	1.3	-4	4.6	1%	16
O=C(O)c1ccc(/C=N/NC(=O)c2ccc(F)cc2)cc1	?	12	1.6	11	-9	8.9	-9%	-3
Cc1ccc(SC[C@H](C)CN2CC[C@H](C)CCC2=O)cc1	0.6	-23	-1.4	-25	-5	1.2	nt	9
Cc1ccc(S(=O)(=O)CCC(=O)N2CCN(c3ccccc3F)CC2)cc1	-1.8	2	5.5	0.6	0	-0.1	nt	2
COC(=O)c1ccccc1NC(=O)CNc1ccc(F)c(S(=O)(=O)N2CCOCC2)c1	-0.3	nt	-493	2.9	-8	nt	-7%	nt
COc1cccc(C(=O)c2c(C)c(CCC#N)n3ccccc23)c1	-0.4	1	0.8	3.0	-5	3.2	25%	3
O=C(c1cc(-c2ccccc2Cl)nc2ccc(Br)cc12)N1CCN(c2ccccn2)CC1	-1.7	-9	7.5	1.8	106*	2.7	-16%	37
Cc1cc(NC(=O)CSc2nc3c(c(=O)n2Cc2ccccc2)SC(C)C3)no1 (stereo not given)	-0.4	-6	-0.1	-0.3	-1	1.3	nt	16
CC1(c2ccccc2)NC(=O)N(CC(=O)NCc2cccc(Cl)c2)C1=O (stereo not given)	0.1	-4	-2.8	0.1	-3	?	nt	-1
CC(NC(=O)/C(C#N)=C1\N=C(NC(=O)c2cccs2)c2ccccc21)c1ccccc1 (stereo not given)	0.0	-2	1.8	nt	-2	-1.2	-5%	-1
COc1cccc(NC(=O)Cc2nnc(SCC(=O)NC(C)c3ccccc3)n2C)c1 (stereo not given)	-0.3	-7	-2.6	nt	nt	-2.6	-3%	-15
Cc1ccc(CC(=O)NCc2cccnc2)cc1	1.2	-2	0.5	-1.9	-7	1.3	-8%	-8
O=C(O)/C=C/C(=O)Nc1cc(F)ccc1F	0.6	-7	-0.6	-4.1	-6	-0.7	4%	-38
COc1ccc(NC(=O)CCN2CCN(S(=O)(=O)c3ccc(Br)cc3)CC2)cc1	0.2	-18	-4.2	1.5	-2	-1.7	nt	8
Cc1c(C(=O)OCC(=O)NC(=O)NC2CCCCC2)cccc1[N+](=O)[O-]	-0.3	nt	4.9	-1.8	-5	nt	-9%	nt
Cn1c(=O)c2cc3c(nc2n(C)c1=O)CC(c1ccccc1)CC3=O (stereo not given)	0.0	1	3.6	-0.4	nt	4.4	nt	-3
CCOc1ccc(S(=O)(=O)N2CCOCC2)cc1NC(=O)CSCc1c(C)noc1C	0.0	11	1.9	-14	3	-0.1	6%	3
O=C(Nc1ncc2c(n1)-c1ccccc1OC2)c1ccccc1Cl	0.7	0	6.0	nt	2	1.0	-6%	-2
O=C(NCCc1c[nH]c2ccccc12)c1ccc([N+](=O)[O-])cc1	?	3	7.3	1.8	-3	3.1	nt	-1
O=C(Nn1cnnc1)c1ccc(F)c(S(=O)(=O)N2CCCCC2)c1	-0.2	-15	0.1	nt	-5	-1.6	?	-18
CC(C(=O)N1CCOCC1)n1cc([N+](=O)[O-])cn1 (stereo not given)	0.2	-1	-2.0	-0.6	-3	-1.2	-1%	-3
CCOc1cc(/C=N\NC(=O)c2ccc(NC(=O)C(C)(C)C)cc2)ccc1OC(=O)c1ccc(OC)cc1	-0.3	-1	-3.0	nt	1	2.8	1%	6
O=C(Cc1ccccc1)NCCSCc1ccc(Cl)cc1	-0.1	0	-1.8	nt	-2	6.6	10%	-2
CC(Sc1ccc(S(=O)(=O)N2CCN(C)CC2)cn1)C(=O)NC1CCCCC1 (stereo not given)	-0.1	nt	0.2	-1.6	5	nt	-6%	nt
Cc1cc(C(=O)COC(=O)c2cccnc2Cl)c(C)n1-c1c(C)n(C)n(-c2ccccc2)c1=O	0.0	-5	-5.3	-4.5	6	-3.0	-19%	-7
COc1ccc(CN2Cc3cccc4c3[C@@H](CC2=O)[C@H](O)[C@H](O)C4)cc1	-0.4	nt	2.1	-10	0	nt	nt	nt
CCN(CC)CCCN(C(=O)c1ccco1)c1nc(-c2ccc(Cl)cc2)cs1	-0.2	-36	5.4	26*	17	-1.0	nt	59*
Cc1ccc(S(=O)(=O)N2CCN(c3ncnc4scc(-c5ccccc5)c34)CC2)cc1	-0.5	nt	15	-3.2	15	nt	nt	nt
COc1ccc(/C(C)=N/NC(=O)CNC(=O)c2cccs2)cc1	0.6	-14	0.4	-2.1	2	-0.4	?	5

Remaining list, next part
SMILES	A1 inh	Calb FLC	LANA-H2A inh	AF4-AF9 inh	Beta cell apopt	RanGTP-Impb inh	Vif A3G	T cruzi inh
CCCC(=O)Nc1cc2c3c(c1)CCN3C(=O)CC2	-0.6	14	-2.3	-1.6	-6	-1.2	-1%	-13
CC(Oc1ccc(Br)cc1)C(=O)Nc1ccc(S(=O)(=O)N(C)C2CCN(C)CC2)cc1 (stereo not given)	0.2	3	-1.1	10	22	0.9	6%	56*
Cc1ccc(SC(C)C(=O)NCc2ccncc2)cc1 (stereo not given)	0.0	-5	3.2	-0.8	-18	-6.8	nt	0
COc1ccc(-c2csc(NC(=O)Cc3ccccc3)n2)cc1OC	0.6	0	0.5	-1.7	0	2.5	nt	-1
Fc1ccc(N2CCN(c3nc(CN4CCOCC4)nc4scc(-c5ccccc5)c34)CC2)cc1	1.4	19	2.0	?	9	0.3	-2%	53
O=C(NC1CCCc2c1cnn2-c1cc(F)cc(F)c1)c1ccncc1 (stereo not given)	0.8	-4	3.8	1.7	0	-2.8	nt	30
CC(=O)C(CC(=O)N1CCCc2ccccc21)C(=O)Nc1ccc(F)cc1 (stereo not given)	0.5	-9	1.4	nt	-10	0.3	7%	1
Cc1ccc(-c2nn(C)c(=O)c3ccccc23)cc1CNC(=O)NC1CCCCC1	0.2	7	-1.4	nt	-5	-2.5	-4%	32
C=CCSc1nnc2c(n1)OC(C)=Nc1ccc(Br)cc1-2	0.2	-7	-1.5	-2.2	-9	1.0	0%	-3
Fc1ccc(OCCn2cnc(Cl)c2Cl)cc1	0.3	-1	0.9	2.7	1	10	2%	10
